TRPV1 potentiator – potentiators of human vanilloid receptor 1 (TRPV1); 0.02% of 320,000 active; AID 540277; TRPV1-expressing cells, Fluo-8 calcium influx, capsaicin EC20 potentiation; host cell line not named in the record; control for the full effect not named in the record; potentiation, % at 8.33 µM; Q8NER1; active means potentiation above 80%; inconclusive means 30% to 80%; inactive means below 30%; also: 0% is about no effect
Target sequence (Q8NER1 whole entry, looked up): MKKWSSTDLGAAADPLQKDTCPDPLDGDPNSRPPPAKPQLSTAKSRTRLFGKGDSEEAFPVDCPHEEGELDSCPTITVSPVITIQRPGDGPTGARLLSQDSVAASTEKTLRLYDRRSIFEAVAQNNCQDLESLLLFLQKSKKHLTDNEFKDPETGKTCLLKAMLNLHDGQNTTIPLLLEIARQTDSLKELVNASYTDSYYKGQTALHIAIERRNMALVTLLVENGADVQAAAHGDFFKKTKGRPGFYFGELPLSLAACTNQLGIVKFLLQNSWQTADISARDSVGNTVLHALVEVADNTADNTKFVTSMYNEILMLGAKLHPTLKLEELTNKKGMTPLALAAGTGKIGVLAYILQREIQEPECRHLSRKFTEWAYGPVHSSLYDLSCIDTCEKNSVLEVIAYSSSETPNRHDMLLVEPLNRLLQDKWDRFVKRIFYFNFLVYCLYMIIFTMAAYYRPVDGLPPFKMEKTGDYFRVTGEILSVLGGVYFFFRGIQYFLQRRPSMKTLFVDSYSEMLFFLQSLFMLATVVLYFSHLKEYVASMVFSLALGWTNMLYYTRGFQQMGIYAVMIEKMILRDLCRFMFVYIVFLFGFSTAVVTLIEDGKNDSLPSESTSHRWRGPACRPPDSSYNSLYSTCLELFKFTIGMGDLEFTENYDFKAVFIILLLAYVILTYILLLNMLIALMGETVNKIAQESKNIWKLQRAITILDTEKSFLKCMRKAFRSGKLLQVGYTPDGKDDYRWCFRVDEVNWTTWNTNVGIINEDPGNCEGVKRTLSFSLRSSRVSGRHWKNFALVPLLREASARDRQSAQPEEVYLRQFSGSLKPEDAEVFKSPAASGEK
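TRPV1-expressing cells were cultured overnight at 35.5C and loaded with Fluo-8 calcium dye for 40 to 90 min at room temperature. After a 10 s baseline, compound was added and calcium influx was read kinetically for 3 min (ex 480/em 520 nm).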
TRPML1 blocker – blocks the human TRPML1 channel; Q9GZU1; TRPML1-inducible cells, Ca2+ dye fluorescence, FDSS; hits give low values; inhibition of EC80 agonist-evoked calcium signal; activity change, negative = inhibition, % (concentration not given with the values); 0.02% of 390,000 active; AID 624415; in the data active means activity change below about -50%; inconclusive means about -30% to -50%; inactive means above about -30%;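 also: stimulus is agonist 54-4 at its EC80 concentration; % is scaled to controls: 0 for no effect and ±100 for the full control effect; compound concentration not given in the record; the text of the record puts the active cut at -80%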
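Calcium fluorescence in TRPML1-DL cells induced overnight with Tet: a 110 s read after compound pin addition, then a 110 s antagonist read after challenge with 54-4 at 4 uM final (EC80).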
Menin-MLL FL inh – inhibitors of human menin-MLL interaction, wild-type MLL peptide | 290,000 tested, under 10 active | FP activity change, % at 61.4 µM | Fluorescence polarization, fluorescein-MLL peptide displacement from menin; inconclusive = falling polarisation curve, or a change in total fluorescence; inactive = total fluorescence flat and polarisation flat or rising; no compound was filed as active; the % refers to the polarisation; negative = inhibition;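 also: % of control where 0% means no effect; inhibitors lower the polarisation; unlabelled MLL peptide was the positive control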
gsp ag – agonists of gsp mutant (McCune-Albright syndrome); gsp mutant cells, cAMP HTRF, 30 min; control for the full effect not named in the record; Potency, µM (highest dose often 76.9 µM), for inactives: at the highest dose activation (cAMP increase), actives largely listed as activators; 0.13% of 340,000 active; active = well fitted activation curve with a large enough effect; inconclusive = small, poorly fitted or top-dose-only effect, or another doubt; inactive = no such curve, though single readings can be large or run the other way; cell line not stated here;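 also: phosphodiesterase inhibitor Ro 20-1724 added with compounds to block cAMP breakdown; potency is read from the fitted curve at half-maximal effect; nearly all actives have a fitted effect of over 60% in size; about a fifth of the inactives were tested at one dose only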
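Cells in DMEM/10% FBS with G418 were pretreated with compounds in DMSO plus […] (300 uM stock) for 30 min at 37C. cAMP was measured by HTRF (cAMP-d2 plus anti-cAMP antibody-K) after 30 min at room temperature.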
gsp antagonist – gsp mutant antagonism; gsp-mutant cells, cAMP HTRF, 30 min; control for the full effect not named in the record; Potency, µM (top dose mostly 76.9 µM), inactives show top-dose activity change, negative = inhibition, actives largely listed as inhibitors; 0.4% of 340,000 active; active = falling curve of any shape with a large fitted effect; inconclusive = falling curve, mostly with a smaller effect; inactive = flat or rising curve; cell line not stated here;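 also: intracellular cAMP measured with PDE inhibitor Ro 20-1724 present during compound exposure; potency is read from the fitted curve at half-maximal effect; % is scaled to controls: 0 for no effect and ±100 for the full control effect; nearly all actives have a fitted effect of over 65% in size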
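HTRF cAMP measurement after 30 min RT detection following 30 min, 37C compound treatment alongside […] (added as 300 uM solution) in G418-selected cells seeded at 2000/well and grown 16–24 h.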
ClpP mod – qHTS Assay for Activators of ClpP | ATP-dependent Clp protease proteolytic subunit (Bacillus subtilis (strain 168)), P80244 | purified B. subtilis ClpP, FRET peptide cleavage, 20 min | Potency, µM (highest dose often 57.5 µM), without a hit: at the highest dose activity change, negative = active | 1.9% of 340,000 active | AID 651965, 2013; active = well fitted falling curve with a large enough effect; inconclusive = small, poorly fitted or top-dose-only effect; inactive = no such curve, though single readings can be large or run the other way; also: potency is read from the fitted curve at half-maximal effect; the source files actives as falling curves though it sought activators and does not explain the sign; nearly all actives have a fitted effect of over 65% in size; many hits overshoot -100%
Target sequence (P80244 whole entry, looked up): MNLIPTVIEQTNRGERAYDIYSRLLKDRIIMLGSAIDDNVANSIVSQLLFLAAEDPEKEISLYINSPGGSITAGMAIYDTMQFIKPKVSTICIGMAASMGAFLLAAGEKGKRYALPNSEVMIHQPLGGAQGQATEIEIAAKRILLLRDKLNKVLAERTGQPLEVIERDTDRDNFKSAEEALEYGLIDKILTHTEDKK
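ClpP 10 microg/mL final, pH 8 Tris/KCl buffer with BSA, glycerol, Tween-20; compound pinned in; FRET-FV substrate; RT 20 min; Ex320/Em430; ΔFRET vs ADEP 5.8 microM, DMSO, no enzyme.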
Sfp PPTase inh – Sfp phosphopantetheinyl transferase inhibition | Q9F4F7 | Biochemical Sfp PPTase activity, qHTS | Potency, µM, for the others: max response, negative = inhibition, most hits filed as inhibitors | 3.5% of 310,000 active; active = well fitted inhibition curve with a large enough effect; inconclusive = small, poorly fitted or top-dose-only effect, or another doubt; inactive = no such curve, though single readings can be large or run the other way;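 also: the enzyme is Sfp with the accession as filed and its product quenches rhodamine fluorescence; potency is read from the fitted curve at half-maximal effect; 0% = enzyme reaction without inhibitor and -100% = no enzyme wells; top concentration of the series not given in the record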
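Fluorescence-quenching assay with 15 nM Sfp, 5 uM rhodamine-CoA and 12.5 uM BHQ-2-labelled ybbR peptide in pH 7.6 Hepes/MgCl2 buffer. Enzyme was pre-incubated with compound for 15 min at room temperature. Rate was taken from the 30-min fluorescence change (525/598 nm).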
* hit, by the source's call; ? = inconclusive; · = not tested or not shown; [ ] = remark or other dose. Random draw from the library; about 4.9% have a hit in one of these screens.

SMILES	TRPV1 potentiator	TRPML1 blocker	Menin-MLL FL inh	gsp ag	gsp antagonist	ClpP mod	Sfp PPTase inh
CC1CCN(S(=O)(=O)c2ccc3c(c2)c(=O)c(C(=O)NCc2ccccc2Cl)cn3C)CC1	2	·	2.2	·	·	·	2%
NC(=O)CN1CCOCCN(CC(N)=O)CCOCC1	-6	-11	0.3	-9%	1%	2.0%	-11%
COc1cc(/C=N\NC(=O)c2c(C)nc3cc(C)ccn23)ccc1O	4	4	-2.9	14%[15.4 µM]	-8%	·	2%
CC(C)c1ccc(-c2nc(N3CCOCC3)[nH]c(=O)c2C#N)cc1	-4	-4	-0.6	-48%	-18%	-1.5%	4%
Cc1cccc(NC(=O)CN2NS(=O)(=O)c3ccccc3C2=O)c1	8	-1	?	-18%	10%	-0.3%	21%
CCCN1C(=O)/C(=C/c2ccc(C)s2)NC1=S	-23	4	?	6%	-10%	-0.9%	7%
O=C(CCSCc1ccccc1F)NCc1ccc(F)cc1	6	25	-0.2	-39%[inhibitor]	6%	·	10%
Cn1c(=NC(=O)c2cccc([N+](=O)[O-])c2)sc2ccccc21	-4	-13	-0.6	23%[15.4 µM]	0%	·	21%
CN(C)S(=O)(=O)c1ccc(N2CCCC2)c(C(=O)NNC(=O)c2ccc(F)cc2)c1	?	-3	·	6%	7%	-1.4%	·
CC(C)N(Cc1nc(-c2ccccc2)no1)C(=O)COc1ccccc1	?	-9	-0.2	-41%[inhibitor]	-2%	0.6%	6%
CN(C)Cc1c(O)c(Cl)cc2c3c(c(=O)oc12)CCCC3	3	-3	2.0	18%	-3%	?	6%
CCOc1ccc(NC(=O)CC2C(=O)N(c3ccc(OC)c(Cl)c3)C(=S)N2C2CC2)cc1 (centres undefined)	-2	-15	·	0%	-11%	1.0%	-17%
O=[n+]1c2c(n([O-])c3cc(Cl)ccc31)CCCC2	9	20	0.3	0%	4%	-4.3%	21%
O=C(CCN1CCN(Cc2ccccc2)CC1)Nc1ccccc1Cl	-16	-6	4.5	-55%[inhibitor]	15%	-7.7%	1%
COc1ccc(CNC(=O)C2CCCN(S(=O)(=O)c3ccc(F)cc3)C2)cc1 (centres undefined)	-8	47	·	?	8%	-2.6%	-3%
COc1cc2c(cc1OC)CC(=O)NC=C2	1	27	1.4	10%[15.4 µM]	0%	·	-2%
CCC1C(=NO)C(CC)C(c2ccccc2)NC1c1ccccc1 (centres undefined)	-6	-13	-0.8	2%[15.4 µM]	?	·	21%
COC(=O)c1cc(CNC(=O)c2cccc(Cl)c2)ccc1OC	-24	-3	6.9	5%[15.4 µM]	-7%	1.8%	12%
Cn1cccc1Cc1nnc(SCC(=O)Nc2ccc3c(c2)OCO3)n1-c1ccc(F)cc1	4	38	5.1	5%	-7%	1.1%	6%
Cc1ccc(S(=O)(=O)Nc2cccc(Cl)c2)cc1NC(=O)C1CC1	·	-11	·	7%	-9%	-0.3%	·
Cc1ccc(NC(=O)COC(=O)c2ccccc2Nc2ccccc2)cc1	8	8	-0.7	-15%	-5%	53%	-27%
O=C(CN(CC1CCCO1)C(=O)CNS(=O)(=O)c1ccc(Cl)cc1)NCc1ccccc1 (centres undefined)	6	-8	1.9	-6%[15.4 µM]	6%	0.0%	14%
COc1ccc(N(C(=O)Cn2nnc(-c3ccc(C)o3)n2)C(C(=O)NC2CCCC2)c2ccncc2)cc1 (centres undefined)	-2	13	-2.6	12%	2%	·	24%
Cc1ccc(C(=O)OCC(=O)NCC2COc3ccccc3O2)cc1 (centres undefined)	-17	5	·	-12%	6%	2.1%	·
CN(Cc1ccc(OCC(O)CN2CCCCC2)cc1)Cc1ccnc2ccccc12 (centres undefined)	6	3	5.6	-54%	5%	-4.6%	-5%
Clc1ccc(OCCN2CCCCC2)c(Cl)c1	-3	0	4.6	-38%[inhibitor]	-11%	0.0%	-16%
O=S(=O)(c1ccc(Cl)cc1)N1CCC2(CC1)OCCO2	3	-2	3.0	27%	-10%	-0.7%	-10%
COCCNc1oc(-c2ccco2)nc1S(=O)(=O)c1ccccc1	3	1	·	7%[15.4 µM]	1%	-1.1%	5%
O=C(NC(Cc1ccccc1)C(=O)NC1CC1)OCc1ccccc1 (centres undefined)	1	14	0.3	3%	8%	·	11%
COc1ccc(N(CC(=O)N2CCCCC2)S(=O)(=O)c2ccccc2)c(OC)c1	-21	0	0.2	7%	-6%	0.6%	-4%
Cc1ccc(-n2nnnc2SCC(=O)NNC(=O)c2ccc([N+](=O)[O-])cc2)cc1	5	0	-0.3	-45%[inhibitor]	-2%	0.5%	-27%
CC(C)c1cccc(C(C)C)c1NC(=O)CN(C)C1CCS(=O)(=O)C1 (centres undefined)	?	20	·	-2%	11%	0.6%	·
O=C(CCNC(=O)C1CCN(S(=O)(=O)c2ccccc2)CC1)NCCc1ccc(Cl)cc1	3	24	·	-3%	-15%	0.0%	7%
CN(C)S(=O)(=O)c1ccc(C(=O)OCC2CC2(Cl)Cl)cc1 (centres undefined)	13	-5	7.7	13%[15.4 µM]	6%	·	9%
CC(C)n1cnc2c(NCc3ccccc3)cc(OCC3CCN(C)CC3)cc21	·	-1	·	4%	-9%	1.5%	·
O=C(OCC#CCSc1nnc(-c2ccc(Br)cc2)o1)c1ccco1	1	2	3.4	-2%	-1%	-0.5%	12%
O=C(NC1CC(=O)N(c2ccc3c(c2)OCCO3)C1)N1CCCCC1 (centres undefined)	-7	-4	·	0%[15.4 µM]	-3%	-2.3%	·
O=C(COC(=O)c1cc(=O)[nH]c(=O)[nH]1)Nc1cccc(S(=O)(=O)N2CCCCC2)c1	6	?	-2.8	26%[15.4 µM]	-22%	-1.3%	8%
CCS(=O)(=O)Nc1c(C(=O)O)[nH]c2ccccc12	5	-5	0.7	2%	-2%	22µM*	5%
CCOc1ccc(C(=O)COC(=O)Cn2[nH]c(=O)c3ccccc3c2=O)cc1	·	9	·	-21%	·	1.3%	·
CC(C)(C)CC(=O)Nc1ccc(S(=O)(=O)N2CCCC2)cc1	-23	-6	7.4	-36%	-1%	·	5%
COc1cccc(C(=O)Nc2ccccc2F)c1	1	7	2.0	2%[15.4 µM]	-11%	·	16%
Oc1ccc(Cl)cc1CNCc1ccc(F)cc1	-32	-12	·	·	12%	-0.4%	·
COc1ccc(Cl)cc1CN1CCOCC1	21	1	-1.6	8%[15.4 µM]	9%	-2.9%	6%
COc1cccc(-n2c(=O)c3ccccc3n3c(=S)[nH]nc23)c1	4	-51*	5.0	0%	?	·	?
O=C(C[C@H]1C/C=C\CC[C@H](Cc2ccc(F)cc2)C(=O)OCCNC1=O)NCCO	·	6	·	-17%	9%	-0.4%	·
COC(=O)C1=C(N)Oc2cc(C)[nH]c(=O)c2C1c1ccncc1 (centres undefined)	5	1	-1.6	6%	-14%	-1.0%	-3%
CCN(C(=O)CN1C(=O)S/C(=C\c2ccccc2Cl)C1=O)C1CCS(=O)(=O)C1 (centres undefined)	·	-11	·	21%	·	0.0%	·
CCN1C(=O)C(O)(CC(=O)c2cccc(-n3cccc3)c2)c2ccccc21 (centres undefined)	19	21	1.9	1%	1%	·	-15%
CCOC(=O)c1ccccc1NC(=O)CC(C)CC(=O)O (centres undefined)	13	-5	1.6	11%	-2%	?	17%
(cont.)
SMILES	TRPV1 potentiator	TRPML1 blocker	Menin-MLL FL inh	gsp ag	gsp antagonist	ClpP mod	Sfp PPTase inh
Cc1cc(C)c2nc(N3CCC(C(=O)NCc4ccccn4)CC3)sc2c1	-11	11	0.0	-15%	-13%	-0.5%	-2%
COc1ccc(-c2nc(CCNC(=O)c3ccco3)cs2)cc1OC	-6	-8	0.1	4%	4%	3.8%	-3%
CCc1ccc2nc(NC(=O)c3ccc4c(=O)[nH]c(CN5CCOCC5)nc4c3)sc2c1	-3	3	-1.1	2%	-16%	-0.8%	-24%
CCOC(=O)CN1C(=O)S/C(=C/c2ccc(OCc3ccc(C(=O)O)cc3)cc2)C1=O	6	-7	-0.3	10%	-11%	·	-14%
CCOc1ccc(CCNC(=O)c2c(C)nn(-c3ccccc3)c2Cl)cc1OCC	-6	-5	·	-13%	-7%	-0.6%	7%
COc1ccccc1/C=N/NC(=O)c1cccc(NC(=O)c2ccccc2C)c1	5	-6	4.6	10%[15.4 µM]	-6%	·	24%
COc1ccc(CNC(=O)C[C@H]2C[C@H](C(=O)N(C(C)C)C(C)C)[C@@]3(C)c4[nH]c5cc(-c6ccco6)ccc5c4CCN3C2=O)cc1OC	·	-7	·	·	-24%	4.0%	·
C=CCN(CC=C)CCOc1ccccc1F	-1	5	-4.4	-4%	-4%	0.7%	?
Cc1ccc(CNCc2cccnc2)cc1	1	13	1.3	-38%[inhibitor]	-4%	1.2%	4%
CCOC(=O)c1csc(N/N=C2\CCCc3ccccc32)n1	2	-10	2.9	-26%	-1%	0.2%	79µM*
Oc1ccc(C(=S)N2CCCCCC2)cc1	-8	27	-2.9	?	-1%	-2.4%	56µM*
COCCNC(=O)/C(C#N)=C/c1cn(CC(=O)NCc2ccco2)c2ccccc12	8	-4	1.5	4%	-5%	·	-1%
Cc1ccc(S(=O)(=O)Cn2nnnc2C(c2ccc(F)cc2)N2CCCCC2)cc1 (centres undefined)	-13	17	5.6	-46%[inhibitor]	-18%	1.3%	14%
O=C(NCC1(O)CCCCC1)C1CCC(=O)N(CCc2ccccc2)C1 (centres undefined)	-4	-18	-4.8	-35%	6%	-1.7%	10%
CC1=NN(C(=O)c2csc(C)c2C)C(O)(C(F)(F)F)C1 (centres undefined)	29	10	1.7	3%	6%	6.0%	-2%
CCOC(=O)C1CCN(S(=O)(=O)c2ccc3c(c2)CCN3C(C)=O)CC1	-3	13	1.7	-1%	-14%	2.7%	20%
CC(=O)Nc1ccc2c(c1)Cc1c-2cc(Br)c(N)c1Br	·	-3	·	7%[15.4 µM]	-5%	-19%	·

Compound activity as filed in PubChem BioAssay.
